CBX7 AlphaScr: inhibitors of human CBX7 binding to H3K27me3 peptide | AlphaScreen His6-CBX7 / biotin-H3K27me3 peptide binding; stronger effect = lower value | normalised signal (fraction of DMSO) (no concentration beside the values) | 1.1% of 66,000 active; in the data active = normalised signal below about 0.5;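 also: 100 nL library stock added to about 20 µL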
Target sequence (O95931 whole entry, looked up): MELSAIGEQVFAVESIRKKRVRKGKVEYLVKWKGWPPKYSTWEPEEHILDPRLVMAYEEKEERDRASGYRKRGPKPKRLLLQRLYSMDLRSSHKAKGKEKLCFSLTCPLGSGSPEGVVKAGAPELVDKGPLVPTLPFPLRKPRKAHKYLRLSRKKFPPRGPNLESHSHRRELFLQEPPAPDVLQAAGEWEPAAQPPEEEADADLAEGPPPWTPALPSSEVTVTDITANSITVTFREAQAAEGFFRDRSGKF
CBX7 AlphaScr z-score: recorded beside CBX7 AlphaScr, whose call it bears; z-score; measured here: z-score of CBX7 signal; some inactives read as strong as hits; reference of the scale not given here;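 same signal on another scale; lower means less binding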
The depositor's hits bear a star; & = joins results of further samples.

SMILES,CBX7 AlphaScr,CBX7 AlphaScr z-score
CCCn1cc(C2CC(=O)N(c3ccccc3C)C2=O)c2ccccc21 (stereo not drawn),0.46*,-16*
O=C(Cn1ncc2c1-c1ccccc1OC2)N1CCN(C2CCCCC2)CC1,1,-0.0023
O=C(O)c1c2c(nc3ccc(S(=O)(=O)N4CCC(C(=O)NC5CCCC5)CC4)cc13)CCCC2,1,0.082
O=S(=O)(c1cccc2cccnc12)N1CCN(c2cccc(C(F)(F)F)c2)CC1,0.95,-1.1
CC(=O)NCC(=O)Nc1ccc2nc(N3CCC(C)CC3)cc(C)c2c1,0.89,-1.9
COc1ccc(OCC(=O)Nc2nc(-c3ccccc3)cs2)cc1,0.93,-0.2
CCOc1ccc(-c2nnc(Nc3cccc(O)c3)c3ccccc23)cc1,0.49*,-2.4*
CCn1c(SCC(=O)N2CCN(c3ccccc3)CC2)nnc1-c1c[nH]c2ccccc12,1.2,1.1
Cc1cc(F)ccc1NC(=O)CC1Oc2ccccc2NC1=O (stereo not drawn),1.1,0.52
O=C(CC1NCCNC1=O)Nc1ccc2c(c1)OCCO2 (stereo not drawn),1,1.8
COc1ccc(Nc2oc(-c3ccccc3F)nc2C#N)cc1,1,0.28
CCCN(CCC)CCNS(=O)(=O)c1ccc2c(c1)CCN2C(C)=O,0.82,-0.75
COc1cccc(C2C(N3C(=O)c4ccccc4C3=O)C(=O)N2c2cccc(C)c2)c1 (stereo not drawn),1,0.81
O=C(NCCc1ccc(Cl)cc1)c1cc2ccccn2n1,1.3,1.9
CC1CCN(C(=O)c2cc(-c3ccccc3O)on2)CC1,0.97,-1.1
CCOC(=O)N1CCC(NC(=O)C2CCCN(c3nn4c(=O)cc(C)nc4s3)C2)CC1 (stereo not drawn),1.1,0.52
O=C(Nc1ccc(S(=O)(=O)Nc2ccccn2)cc1)C1(c2ccccc2)CCOCC1,1,1.7
CCCOc1ccc(N2C(=O)CC(NCCc3ccccc3)C2=O)cc1 (stereo not drawn),1&1,0.52&0.43
COc1ccc(Cn2nc(-c3ccccc3)cc2-c2ccccc2O)cc1,0.66,-9.2
COc1ccc(NC(=O)CSc2nc(-c3ccc(F)cc3)[nH]c2-c2ccc(OC)cc2)cc1,0.91,-4.1
Cc1ccccc1CN1C(=O)c2ccccc2Sc2ccc(C(=O)NCc3cccnc3)cc21,0.93,-3.5
C=CCc1ccccc1OCC(O)CN1C(=O)NC(C)(C)C1=O (stereo not drawn),1,0.38
COc1ccc(Nc2nc(Cc3ccccc3)nc3sc(C)c(C)c23)c(OC)c1,1,1.3
N#Cc1ccc(NC(=O)c2noc3c2CCc2ccccc2-3)cc1,1,0.26
CCC(=O)N1CCc2cc(S(=O)(=O)N(C)CCC#N)ccc21,1.3,2.2
CCOc1ccc(NC(=O)C2CCN(C(=O)c3cnn(-c4ccccc4)c3-n3cccc3)CC2)cc1,0.9,-0.22
CCOc1ccc(NC(=O)NCCN2CCN(c3cc(Cl)ccc3C)CC2)cc1,1.1,0.92
COc1ccc(N2CC(C(=O)Nc3ccccc3)CC2=O)cc1 (stereo not drawn),1,0.00086
Cc1ccn2c(Nc3ccc(Cl)cc3)c(-c3ccc(N4CCOCC4)cc3)nc2c1,0.91,-2.3
Cc1ccc(C2CC(c3ccc(C)cc3)n3ncnc3N2)cc1 (stereo not drawn),1,0.84
Cc1cc(N2CC(C)CC(C)C2)nc2ccc(NC(=O)CCC(=O)NC3CCCCCC3)cc12 (stereo not drawn),1,0.8
O=C(O)C1C2C=CC(C2)C1C(=O)Nc1ccccc1O (stereo not drawn),1,0.95
COc1cc(C2CC(=O)Nc3cc4c(cc32)OCCO4)cc(Br)c1OC (stereo not drawn),0.8,-2.1
Fc1ccc(-c2nnc3ccc(N4CCN(C5CCCCC5)CC4)nn23)cc1,0.97,-0.4
Cc1ccccc1NS(=O)(=O)c1ccc2[nH]cc(C(=O)NCCC(C)C)c(=O)c2c1,0.81,-3.6
CC1CCN(c2ccc3nnc(-c4ccc(F)cc4)n3n2)CC1,0.97,-0.63
COc1ccccc1-c1cc(C(=O)N2CCN(c3ccccc3OC)CC2)no1,0.92,-0.93
COCc1nc2ccccc2n1CCOc1cccc2ccccc12,0.98,-0.57
Cn1c2c(c3cc(C4CCCCC4)ccc31)CCCCC2=O,1,0.29
Cc1ccc(NC(=O)c2nc[nH]c2C(=O)N2CCCCC2)c(C(=O)c2ccccc2)c1,0.95,-2.1
COc1ccc(-c2nc(-c3ccc(F)cc3)[nH]c2-c2ccc(OC)cc2)cc1,0.51,-12
CCC(C)NC(=O)C1c2ccccc2C(=O)N1Cc1ccc(OC)cc1 (stereo not drawn),1.1,0.71
CCc1ccc(NC(=O)CSc2nnc(CNC(=O)c3cc(OC)c(OC)c(OC)c3)o2)cc1,0.89,-1.6
Cc1ccc(-n2cc(-c3ccc4c(c3)OCO4)nc2SCC(=O)Nc2cccc(F)c2)cc1,0.97,-0.26
CCc1ccc(-c2nc(CN3CCC(C(=O)NC(C)CC)CC3)c(C)o2)cc1 (stereo not drawn),0.84,-2.5
COc1ccc(CNc2ncnc3c2c(-c2ccccc2)cn3-c2ccc(F)cc2)cc1,0.94,-1.6
CCCCNC(=O)C1CC(c2ccc(F)cc2)=NO1 (stereo not drawn),1,1.4
Cc1cc(C)cc(-n2ccnc2SCC(=O)NCc2ccc3c(c2)OCO3)c1,0.94,-1
CC(C)CN(CCCNC(=O)CC(C(=O)N1CCc2ccccc21)n1ccnc1)CC(C)C (stereo not drawn),1,0.074
COc1ccccc1-c1c(C)nn2c(N3CCc4ccccc4C3)cc(C)nc12,1.3,1.5
CC1(C)NC(=O)N(CC(O)COc2cc3ccccc3cc2C(=O)N2CCCCC2)C1=O (stereo not drawn),0.97,-0.3
c1ccc(Nc2ncnc3sc4c(c23)CCCC4)cc1,1.1,1.7
O=C(NC1CCCCCC1)c1ccccc1-c1nc2ccccc2[nH]1,1.1,0.19
CC1CCN(c2c(NCc3ccc(C(=O)Nc4ccc(C(C)C)cc4)cc3)c(=O)c2=O)CC1,0.99,-0.45
N#Cc1nc(COc2ccc(F)cc2)oc1N1CCCCC1,0.42*,-11*
COc1ccc(N2CCN(C(c3cccs3)C(C)NS(=O)(=O)c3ccccc3)CC2)cc1 (stereo not drawn),0.48*,-6.7*
Cc1ccc(-n2ncc3c(Nc4ccc(OCc5ccccc5)cc4)ncnc32)c(C)c1,0.92,-2.1
CC(=O)N1CCN(c2nc(-c3ccccc3Cl)c3cc(Br)ccc3n2)CC1,1.2,1.6
COc1ccccc1C(=O)Nc1ccc(-c2csc(C)n2)cc1,1,0.054
CCn1cc(C(=O)NC2CCCCCC2)c2cc(OC)c(OC)cc2c1=O,1.2,1.4

Next part
SMILES,CBX7 AlphaScr,CBX7 AlphaScr z-score
CCOc1ccccc1NC(=O)Cn1c(=O)n(Cc2ccccc2)c(=O)c2cccnc21,0.96,-0.81
CCOC(=O)c1cc(-c2ccc(OC)cc2)n(CCC(=O)NC2CCCC2)c1C,0.97,-0.32
N#Cc1nc(-c2ccccc2F)oc1N1CCCCC1,0.85,-1.7
O=C(NC1CCCCCC1)c1ccc2nc(N3CCOCC3)sc2c1,1,0.82
O=C(CSc1nccn1-c1ccccc1)Nc1nccs1,0.98,-0.6
CCCCNC(=O)C1c2cc(OC)c(OC)cc2C(=O)N(C)C1c1ccccc1F (stereo not drawn),1,0.011
CCC1CCCCN1C(=O)c1c(-c2ccccc2)noc1C (stereo not drawn),0.98,-0.21
O=C(Nc1cc(F)ccc1F)C1CCCN1S(=O)(=O)c1cccc2cccnc12 (stereo not drawn),1.2,1.6
Cc1ccc(-c2noc(CCC(=O)Nc3ccc(Oc4ccccc4)cc3)n2)cc1,1.2,0.21
Clc1ccc(-c2nc(Nc3ccc4c(c3)OCCO4)c3ccccc3n2)c(Cl)c1,1.2,3.1
Cn1c(=O)c2cn(-c3ccc(F)cc3)cc2n(C)c1=O,1,0.44
CCOc1ccc2nc(N3CCC(C(=O)NCc4ccccn4)CC3)sc2c1,0.98,-0.067
O=C(Nc1cccc(-c2nc3ccccc3s2)c1)c1ccc(S(=O)(=O)N2CCCCCC2)cc1,1.1,0.77
CCOc1ccc(-n2c(CC)nc3c(cnn3-c3ccc(C)cc3)c2=O)cc1,0.98,-0.33
COc1cc(NS(=O)(=O)c2ccc(NC(=O)c3cccc(Br)c3)cc2)nc(OC)n1,1.3,2.7
COc1cc(OC)cc(C(=O)Nc2nc(-c3ccccn3)cs2)c1,0*,-18*
CC1CCC(NC(=O)C2CCN(C(=O)c3cc4sccc4n3Cc3ccc(F)cc3)CC2)CC1 (stereo not drawn),1,-0.15
Cc1ccc(C)c(Cn2cc(S(=O)(=O)c3ccccc3)c(=O)c3cc(F)ccc32)c1,1,-0.064
O=C1CC(N2CCN(C(c3ccc(F)cc3)c3ccc(F)cc3)CC2)C(=O)N1c1ccc(Br)cc1 (stereo not drawn),0.91,-3.6
O=C(NCc1c(F)cc(F)cc1F)c1ccc2c(c1)N(Cc1cccc(Cl)c1)C(=O)CS2,1.1,1.6
CCOC(=O)N1CCN(c2c(NC3CCCC3)c(=O)c2=O)CC1,1,0.69
Cc1cc2ncn(CC(=O)N3CCOCC3)c2cc1C,1,1.2
CC1CC(=O)Nc2c(Br)cc(Br)cc2N1 (stereo not drawn),1,0.97
O=C(Nc1ccc(O)cc1)c1cc2nc3c(c(C(F)(F)F)n2n1)CCc1ccccc1-3,1.1&1.2,1&2.1
N#Cc1c(C(F)(F)F)cc(-c2ccccc2)nc1NCCO,1.2,5.7
CC(=O)N1CCc2cc(S(=O)(=O)NC(C(=O)NC(C)c3ccccc3)C(C)C)ccc21 (stereo not drawn),0.94,-1.1
O=C1CN(C(=O)COc2ccccc2)C(c2ccccc2)c2cc(Br)ccc2N1 (stereo not drawn),0.48*,-5*
CC(C)CCNC(=O)c1ccc2c(c1)N(Cc1ccccc1)C(=O)CS2=O (stereo not drawn),1.3,4
Cc1ccccc1Cn1c(CCNC(=O)Cc2ccccc2)nc2ccccc21,0.93,-1.1
COc1cccc(NC(=O)CSc2nnc(Cc3cc(=O)[nH]c(=O)[nH]3)n2-c2ccccc2)c1,1,1.7

Compound profiles, as listed above. Values in the order: CBX7 AlphaScr | CBX7 AlphaScr z-score
CCOC(=O)N1CCN(c2c(NC3CCCC3)c(=O)c2=O)CC1 in the list: 1 | 0.69
O=C1CN(C(=O)COc2ccccc2)C(c2ccccc2)c2cc(Br)ccc2N1 (stereo not drawn) in the list: 0.48* | -5*
O=C(CSc1nccn1-c1ccccc1)Nc1nccs1 in the list: 0.98 | -0.6

Other entries.
SMILES,CBX7 AlphaScr,CBX7 AlphaScr z-score
O=C(COc1ccccc1)NCCc1nc2ccccc2n1Cc1ccccc1Cl,0.9,-0.95
O=c1cc(N2CCC3(CC2)OCCO3)[nH]c(=O)n1-c1ccc(Cl)cc1,1.2,1.4
O=C(CCn1nc(-c2ccccc2)c2ccccc2c1=O)Nc1ccc(Br)cc1,0.98,-0.51
Cc1ccc(-c2nc(CSCC(=O)NCCc3ccccc3)c(C)o2)cc1,0.93,-1.3
O=C(Nc1ccc2oc(-c3ccc(Cl)cc3Cl)nc2c1)c1cccc(F)c1,1,0.75
Cc1ccc(NC(=O)CSc2nc3nc(C)c(Cc4cccc(C)c4)c(C)n3n2)cc1,1.2,1.6
CCCCCn1c(SCC(=O)OCC)nc2cc(C(=O)NCC3CCCO3)ccc2c1=O (stereo not drawn),1.2,1.2
CCOc1ccc(NC(=O)CCc2nc(-c3ccccc3F)no2)cc1,1,0.57
COc1ccccc1-c1cc2nc(C)c(CCC(=O)Nc3ccc4c(c3)OCCO4)c(C)n2n1,1,0.62
CC(=O)Nc1ccc(S(=O)(=O)NCc2ccc(C(=O)NCc3ccccc3Cl)cc2)cc1,0.92,-0.34
O=C(CN1CCN(Cc2ccccc2F)C1=O)NCCc1ccc(Cl)cc1,0.9,-1.4
CCOc1ccc2nc(N3CCCC(C(=O)Nc4ccc(OC)cc4)C3)sc2c1 (stereo not drawn),1.2,2.2
CCCCSc1oc(-c2ccccc2)nc1S(=O)(=O)c1ccccc1,1.1,0.45
COc1ccc(C(=O)Nc2c3c(nn2-c2ccccc2)CSC3)cc1OC,0.99,-0.16
Cc1cccc(Nc2nc3ccccc3nc2NS(=O)(=O)c2ccc(Br)cc2)c1,0.92,-2.3
CCOc1ccc(-n2c(Cc3cc(=O)[nH]c(=O)[nH]3)nnc2SCC(=O)Nc2cc(C)on2)cc1,1,1.1
O=C(c1nn2c(C(F)(F)F)cc(-c3ccco3)nc2c1Cl)N1CCCC1,0.87,-1.7
CCC(C)NC(=O)c1cn(C2CCCC2)c(=O)c2c1c1ccccc1n2C (stereo not drawn),1.1,1.6

Five records drawn at random from those above:
SMILES,CBX7 AlphaScr,CBX7 AlphaScr z-score
CCOc1ccc(-n2c(Cc3cc(=O)[nH]c(=O)[nH]3)nnc2SCC(=O)Nc2cc(C)on2)cc1,1,1.1
Cc1cccc(Nc2nc3ccccc3nc2NS(=O)(=O)c2ccc(Br)cc2)c1,0.92,-2.3
CC(=O)Nc1ccc(S(=O)(=O)NCc2ccc(C(=O)NCc3ccccc3Cl)cc2)cc1,0.92,-0.34
CCC(C)NC(=O)c1cn(C2CCCC2)c(=O)c2c1c1ccccc1n2C (stereo not drawn),1.1,1.6
CCOc1ccc2nc(N3CCCC(C(=O)Nc4ccc(OC)cc4)C3)sc2c1 (stereo not drawn),1.2,2.2

The list is partial; count on the stated rates, not on these rows.
